Sfp inh: blocks B. subtilis Sfp PPTase activity; Biochemical Sfp PPTase activity, qHTS; Potency, µM, without a hit: max response, negative = inhibition, actives largely listed as inhibitors; actives 3.5% (n = 310,000); AID 1490; active = well fitted inhibition curve with a large enough effect; inconclusive = small, poorly fitted or top-dose-only effect, or another doubt; inactive = no such curve, though single readings can be large or run the other way;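 also: the enzyme is Sfp with the accession as filed and its product quenches rhodamine fluorescence; potency is read from the fitted curve at half-maximal effect; 0% = enzyme reaction without inhibitor and -100% = no enzyme wells; top concentration of the series not given in the record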
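Fluorescence-quenching assay: 15 nM Sfp-PPTase preincubated 15 min at room temperature with compound, then 5 uM rhodamine-CoA and 12.5 uM BHQ-2-labelled YbbR peptide added. Fluorescence (ex 525/em 598 nm) read at start and after 30 min; difference gives rate.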
PINK1 expr mod: PINK1 expression modulation | Potency, µM (doses to about 76.6 µM), inactives show at the top dose activation (PINK1 increase), hits mostly activators | PINK1 immunofluorescence, high-content cytometry, 24 h | actives 0.2% (n = 410,000) | AID 624263; active = well fitted activation curve with a large enough effect; inconclusive = small, poorly fitted or top-dose-only effect; inactive = flat fitted curve, though single readings scatter; cell line not stated here;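 also: potency is read from the fitted curve at half-maximal effect; % of control where 0% means no effect; nearly all actives have a fitted effect of over 65% in size; a mitochondrial uncoupler was the plate control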
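Cells are seeded, rested 12 hours, then given compound at five concentrations or DMSO for 24 hours. After fixation, blocking and antibody staining, PINK1 amount and mitochondrial localization are scored; CCCP serves as control.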
TRPML1 agonist: human mucolipin-1 channel agonism; TRPML1-expressing cells, Ca2+ dye fluorescence, FDSS; host cell line not named in the record; reference of the full effect not given here; Q9GZU1; activation, % (no concentration beside the values); actives 0.12% (n = 410,000); in the data active = activation above about 50%; inconclusive = about 30% to 50%; inactive = below about 30%; also: 0% is about no effect; the text of the record puts the active cut at 80%
Target sequence (Q9GZU1 whole entry, looked up): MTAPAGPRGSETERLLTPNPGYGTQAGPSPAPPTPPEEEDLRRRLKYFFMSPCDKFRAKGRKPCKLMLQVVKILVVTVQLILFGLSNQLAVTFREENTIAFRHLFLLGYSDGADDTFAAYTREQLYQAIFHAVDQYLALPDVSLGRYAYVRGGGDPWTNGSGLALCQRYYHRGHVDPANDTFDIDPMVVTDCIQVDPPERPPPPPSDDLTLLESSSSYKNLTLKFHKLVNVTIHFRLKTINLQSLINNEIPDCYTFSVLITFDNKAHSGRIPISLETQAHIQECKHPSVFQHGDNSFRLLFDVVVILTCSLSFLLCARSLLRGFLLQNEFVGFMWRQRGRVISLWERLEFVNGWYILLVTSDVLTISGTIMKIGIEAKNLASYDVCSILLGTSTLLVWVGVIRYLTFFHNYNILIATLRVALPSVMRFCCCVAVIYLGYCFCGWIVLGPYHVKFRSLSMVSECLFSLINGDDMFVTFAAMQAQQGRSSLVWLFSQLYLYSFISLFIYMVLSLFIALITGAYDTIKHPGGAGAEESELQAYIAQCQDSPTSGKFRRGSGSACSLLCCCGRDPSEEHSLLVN
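Tetracycline-induced TRPML1-DL cells are seeded and incubated overnight before loading with a no-wash Ca2+ dye and quencher. Agonist activity is taken from the 110 s fluorescence read following compound pin-transfer on an FDSS, before EC80 54-4 challenge.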
TRPV1 PAM: human TRPV1 potentiation | TRPV1-expressing cells, Fluo-8 calcium influx, capsaicin EC20 potentiation; host cell line not named in the record; control for the full effect not named in the record | potentiation, % at 8.33 µM | actives 0.02% (n = 320,000); active means potentiation above 80%; inconclusive means 30% to 80%; inactive means below 30%; also: 0% is about no effect
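Fluo-8 calcium influx in TRPV1-expressing cells, kinetic read (ex 480/em 520 nm). Compound added and read 3 min for agonist activity, followed by capsaicin at EC20 final and 2 min further read for enhancement.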
TRPML1 blocker: inhibitors of human TRPML1 channel; Q9GZU1; TRPML1-inducible cells, Ca2+ dye fluorescence, FDSS; active compounds read low; inhibition of EC80 agonist-evoked calcium signal; activity change, negative = inhibition, % (concentration not given with the values); actives 0.02% (n = 390,000); AID 624415; in the data active means activity change below about -50%; inconclusive means about -30% to -50%; inactive means above about -30%;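 also: stimulus is agonist 54-4 at its EC80 concentration; % is scaled to controls: 0 for no effect and ±100 for the full control effect; the text of the record puts the active cut at -80%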
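Calcium fluorescence in TRPML1-DL cells induced overnight with Tet: a 110 s read after compound pin addition, then a 110 s antagonist read after challenge with 54-4 at 4 uM final (EC80).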
ClpP mod: qHTS Assay for Activators of ClpP | AID 651965, 2013 | Potency, µM (titrated, usually from 57.5 µM), without a hit: at the top dose activity change, negative = active | purified B. subtilis ClpP, FRET peptide cleavage, 20 min | actives 1.9% (n = 340,000); active = well fitted falling curve with a large enough effect; inconclusive = small, poorly fitted or top-dose-only effect; inactive = no such curve, though single readings can be large or run the other way; also: potency is read from the fitted curve at half-maximal effect; the source files actives as falling curves though it sought activators and does not explain the sign; nearly all actives have a fitted effect of over 65% in size; many hits overshoot -100%
Target sequence (P80244 whole entry, looked up): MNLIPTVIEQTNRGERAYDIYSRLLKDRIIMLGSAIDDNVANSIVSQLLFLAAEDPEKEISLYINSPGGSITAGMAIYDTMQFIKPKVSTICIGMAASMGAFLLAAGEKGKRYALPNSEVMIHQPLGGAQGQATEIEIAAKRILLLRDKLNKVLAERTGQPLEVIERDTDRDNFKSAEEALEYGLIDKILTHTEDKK
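FRET quenching reversal measured ClpP activation: 10 microg/mL B. subtilis ClpP at pH 8 with the FRET-FV decapeptide, read at 430 nm after 320 nm excitation. The 20-min minus 0-min signal was scaled between DMSO/no-enzyme wells and ADEP (5.8 microM final).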
Menin-MLL FL inh: inhibitors of human menin-MLL interaction, wild-type MLL peptide; FP activity change, % at 61.4 µM; 290,000 tested, under 10 active; Fluorescence polarization, fluorescein-MLL peptide displacement from menin; inconclusive = falling polarisation curve, or a change in total fluorescence; inactive = total fluorescence flat and polarisation flat or rising; no compound was filed as active; the % refers to the polarisation; negative = inhibition;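 also: % of control where 0% means no effect; inhibitors lower the polarisation; unlabelled MLL peptide was the positive control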
* = called active by the depositor; ? = inconclusive; . = not tested or not shown; [ ] = dose if it differs, or a comment.

SMILES	Sfp inh	PINK1 expr mod	TRPML1 agonist	TRPV1 PAM	TRPML1 blocker	ClpP mod	Menin-MLL FL inh
CCC(=O)N1CCc2cc(S(=O)(=O)CCC(=O)NCc3ccc(F)cc3)ccc21	.	8.0%	-0.6	.	0.7	0.6%	.
COc1cc(C(=O)Nc2ccc(-c3cc(C(F)(F)F)nn3-c3ccccc3)cc2)cc(OC)c1OC	.	2.1%	2.2	.	6.6	-2.9%	.
CCOC(=O)CN1C(=O)CC(c2ccc([N+](=O)[O-])cc2)C1=O (stereo not drawn)	6.0%	3.5%	0.6	25.1	29.9	1.1%	5.6
COc1cccc(NC(=S)Nc2ccc(Br)cc2Cl)c1	-5.3%	1.1%	-0.4	4.6	5.2	.	0.4
O=S1(=O)CC(N2CC=CC2)CN1Cc1ccc(F)cc1 (stereo not drawn)	.	-0.6%	-0.6	.	.	-3.9%	.
Cc1ccc(NC(=O)CC2C(=O)NCCN2C(=O)c2ccc(F)cc2)cc1 (stereo not drawn)	12.2%	-0.8%	-0.5	-0.2	27.7	0.7%	-2.2
CCCn1c(=O)c2c(nc3n2CC(C)CN3Cc2ccccc2)n(C)c1=O (stereo not drawn)	-6.0%	2.0%	0.8	-5.1	-4.1	0.5%	2.7
CCn1c(CCl)nc2cc(S(=O)(=O)N3CCOCC3)ccc21	.	7.9%	0.1	.	-3.7	-1.3%	.
COc1ccc(C(O)(CCC(C)C)C(CN2CCOCC2)c2ccc(Cl)cc2)cc1 (stereo not drawn)	-9.9%	?	1.1	-10.2	41.7	.	-2.0
COCCNc1nc(N)c([N+](=O)[O-])c(N2CCCCCC2)n1	6.1%	7.1%	1.5	1.7	34.6	.	-0.3
Cc1ccc(C(=O)CCC(=O)OCC(=O)N2CCN(S(=O)(=O)c3ccc(C)cc3C)CC2)cc1	.	2.2%	7.0	.	11.6	-3.5%	.
CC(C)Oc1ccc(S(=O)(=O)N2CCCCC2)cc1NC(=O)CC1OC(=O)c2ccccc21 (stereo not drawn)	.	3.0%	0.6	-2.4	-11.8	.	.
N#C/C(=C\c1c[nH]c2ccccc12)c1nnc2n1CCCCC2	18.3%	-0.2%	-0.3	3.8	12.8	0.4%	0.3
S=C1NC2CCCCC2N1 (stereo not drawn)	2.6%	-1.5%	-0.1	0.4	-1.6	.	2.5
O=S(=O)(c1ccccc1)c1nc(-c2ccccc2)oc1N1CCOCC1	13.5%	0.1%	0.1	-2.6	-10.6	-5.2%	5.3
O=C1c2ccccc2NC(c2ccc(O)c(O)c2)N1c1ccccc1Cl (stereo not drawn)	1.6%	-1.1%	0.9	16.3	18.6	?	0.8
COc1ccc(CNc2ccnc(-c3ccc4c(c3)OCO4)n2)c(OC)c1	44.7µM*	11.0%	.	.	.	.	0.2
COc1ccc(CC(=O)NCC2CCCN(Cc3ccc(SC)cc3)C2)cc1 (stereo not drawn)	0.8%	-0.2%	.	-7.7	.	1.4%	-0.5
COc1ccc(OCC(=O)Nc2ccc3c(c2)OCO3)cc1	11.8%	0.4%	-0.1	-9.2	-9.9	.	0.5
O=c1nc(-c2ccccc2)cc(C(F)(F)F)[nH]1	5.1%	-3.0%[38.3 µM]	0.0	-1.1	2.1	-21.9%	1.7
Cc1cccc(N(CC(=O)NC(C)(C)C)C(=O)CS(=O)CC(=O)Nc2ccc(F)cc2)c1 (stereo not drawn)	-0.3%	-0.8%	0.0	-3.4	-4.8	.	-2.5
CN1CCN(C(=O)/C=C/c2ccc([N+](=O)[O-])o2)CC1	5.3%	3.4%	0.0	3.5	-6.9	2.6%	-26.1
O=C(O)c1ccc(S(=O)(=O)NCc2cccnc2)cc1	19.0%	-0.8%	-1.5	2.1	11.1	-0.5%	3.8
O=C(COc1ccc(Cl)cc1)NCCc1ccccn1	1.9%	0.9%	-0.4	4.9	12.2	?	0.9
COc1ccccc1Nc1nc(C)nc(N)c1S(=O)(=O)c1ccccc1	.	1.8%	3.3	.	22.1	3.4%	.
COc1ccc(-c2nc3sc(CCNC(=O)c4cc(OC)c(OC)c(OC)c4)c(C)n3n2)cc1	.	0.2%	-0.5	.	24.0	1.3%	.
Cc1nn(C)cc1C(=O)Nc1c(C)nn(Cc2ccccc2Cl)c1C	12.9%	9.0%	-0.4	11.1	5.5	-2.8%	9.1
Cc1c(C(=O)NCCN(C)C)n(C)c(=O)c2ccccc12	.	-0.5%	-0.1	.	.	4.8%	.
O=C(CN1C(=O)NC2(CCc3ccccc32)C1=O)NCc1ccccc1Cl (stereo not drawn)	.	-1.0%	-0.6	-8.1	-7.1	-2.2%	.
COCCCNC(=O)CCc1ccccc1	11.4%	1.9%	0.4	-4.0	-4.5	.	1.4
CC(=O)Nc1ccc(S(=O)(=O)Nc2ccc3nc(C)sc3c2)cc1	.	1.0%	-0.5	.	43.3	.	.
COc1cccc(C(NC(=O)c2ccccc2F)NC(=O)c2ccccc2F)c1	?	-0.7%	0.4	-18.1	10.3	-0.8%	4.1
Cc1cccc(C(=O)OCC(=O)Nc2nccs2)c1	9.0%	2.6%[38.3 µM]	2.8	-12.0	-7.6	0.5%	-2.8
COc1cccc(-c2cnc(C(O)c3ccc(OC)c(F)c3)[nH]2)c1 (stereo not drawn)	.	0.9%	-1.0	.	.	-0.9%	.
c1ccc(Cn2ncc3c(N4CCN(C(c5ccccc5)c5ccccc5)CC4)ncnc32)cc1	10.5%	7.4%	0.1	14.4	-11.5	-0.1%	37.4[activator]
CCc1ccc(C(=O)C(C)OC(=O)c2nn(C)c(=O)c3ccccc23)cc1 (stereo not drawn)	.	4.2%	0.5	10.7	-1.6	-0.9%	.
O=C(N(c1ccccn1)c1ccccn1)C12CC3CC(CC(Cl)(C3)C1)C2	3.7%	0.2%	-1.2	11.5	4.4	.	1.0
CCc1ccc2ncc3c(-c4ccc(F)cc4)nn(CC(=O)NC4CCCCC4)c3c2c1	.	0.3%	-0.8	.	-2.2	1.8%	.
COc1cc(/C=N/Nc2ncnc3sc4c(c23)CCC4)ccc1O	-9.9%	-0.8%	0.9	-8.7	3.9	-13.3%	3.6
COC(=O)C1=C(C)NC(=O)C1(NC(=O)c1ccc(Cl)cc1)C(F)(F)F (stereo not drawn)	.	2.0%	-0.7	.	18.8	-2.5%	.
Cc1ccc(S(=O)(=O)c2c(C(=O)c3ccccc3)cnc3cc4c(cc23)OCCO4)cc1	-2.7%	-1.4%	2.4	17.9	31.1	?	4.5
COc1ccccc1CNC(=O)Cc1csc2nc(-c3ccc(Cl)cc3)cn12	.	0.4%	-0.3	.	31.2	0.2%	.
O=C(CN1CCN(C(=O)C2CCCO2)CC1)Nc1ccc(Cl)c(Cl)c1 (stereo not drawn)	11.3%	-0.3%	-0.1	0.0	2.7	0.7%	-5.2
Cc1ccc(N2CC(NC(=O)c3ccco3)CC2=O)cc1 (stereo not drawn)	.	0.3%	-0.8	.	-5.3	1.6%	.
COc1ccc(CN2CCC(C(=O)N3CCN(c4ccccc4F)CC3)CC2)cc1OC	-2.0%	-2.0%	-0.3	-37.0	2.9	0.3%	1.9
CC(C)(C)C1CCC2(CC1)C(Nc1cccc(C(F)(F)F)c1)=NC(=S)N2CC#N (stereo not drawn)	13.6%	14.9%	-0.1	7.3	5.5	1.4%	-5.2
CCn1ccnc1CNC(=O)CC1C(=O)NCCN1CC(c1ccccc1)c1ccccc1 (stereo not drawn)	-26.2%	1.0%	0.5	9.5	-14.5	.	-10.2
Cc1ncsc1CCOC(=O)c1ccc([N+](=O)[O-])cc1	5.8%	-0.2%	0.5	-14.9	17.2	-3.7%	3.3
COc1cccc(NC(=S)NCc2ccncc2)c1	-1.5%	1.5%	0.7	3.1	26.0	-2.7%	-0.1
COc1ccc(N(C(=O)c2cc3ccccc3oc2=O)C2C=CS(=O)(=O)C2)c(OC)c1 (stereo not drawn)	18.4%	0.6%	0.6	-6.2	15.4	-6.7%	-6.1
Cc1ccc(/C(N)=N/OC(=O)CCC2CCCCC2)cc1	1.9%	58.9%[38.3 µM]	0.2	2.9	-8.9	-1.3%	0.0
O=C(CNc1cccc2ccccc12)N/N=C/c1ccc([N+](=O)[O-])cc1	5.7%	8.9%	-0.5	6.7	-5.4	.	-1.3
CCCOc1ccc(C(=O)NC(=S)Nc2nc(C)c(C(=O)N(C)C)s2)cc1	-0.7%	2.3%[38.3 µM]	-0.4	-1.1	-0.5	1.0%	2.5
Cc1cnc(=O)[nH]c1SCc1ccc(C(F)(F)F)cc1	3.0%	5.5%	-0.5	5.8	-5.5	-0.4%	-0.6
CCOc1ccccc1N(CC(=O)OC)S(=O)(=O)c1ccccc1	9.1%	-1.7%	0.4	-2.2	2.0	-0.8%	6.0
COc1ccc(CNS(=O)(=O)c2ccc(-c3ccc(=O)[nH]n3)s2)cc1OC	10.1%	0.2%	-0.5	-33.4	10.3	-3.1%	.
O=C(NC1CCCCC1)c1cc2nc3c(c(C(F)(F)F)n2n1)CCCC3	-8.5%	8.3%	-0.6	?	-10.7	-3.1%	-1.3
CC(=O)c1ccc(NC(=O)CSc2nc3[nH]c(=O)cc(O)c3s2)cc1	.	-0.9%	0.4	.	-6.1	.	.
COc1ccccc1NC(=O)c1ccc(Cl)c(S(=O)(=O)N2CCOCC2)c1	13.1%	1.1%	-1.1	-6.9	5.7	-1.0%	0.4
Cc1cc(=O)n2nc(N(C)CC(=O)NCc3cccc(Br)c3)sc2n1	.	-0.1%	-0.8	.	-0.9	2.0%	.
Carrying on.
SMILES	Sfp inh	PINK1 expr mod	TRPML1 agonist	TRPV1 PAM	TRPML1 blocker	ClpP mod	Menin-MLL FL inh
Cc1cccc(C)c1NC(=O)CS(=O)CC(=O)Nc1ccc(F)cc1F (stereo not drawn)	25.4%	-1.3%	0.5	-2.0	17.6	-2.1%	4.3
O=C(Cc1c[nH]c2ccccc12)NCc1ccncc1	12.6%	0.3%	-0.2	10.7	10.1	-0.1%	.
COc1ccc(OC)c(CCNC(=O)CC2Oc3ccc(C)cc3NC2=O)c1 (stereo not drawn)	-8.2%	-0.8%	2.5	5.2	-9.5	0.4%	2.0
COC(=O)c1ccc(-c2nc(CN3CCC(C(=O)N4CCOCC4)CC3)c(C)o2)cc1	9.1%	1.2%	-0.3	?	1.5	7.94µM*	.

Assay outcomes from PubChem.

Rows are unselected; 4.4% or so of the library scored in one or more.
